Sfp inh – blocks B. subtilis Sfp PPTase activity; Biochemical Sfp PPTase activity, qHTS; Potency, µM, for inactives: max response, negative = inhibition, usual class: inhibitors; 310,000 compounds, 3.5% hits; active = well fitted inhibition curve with a large enough effect; inconclusive = small, poorly fitted or top-dose-only effect, or another doubt; inactive = no such curve, though single readings can be large or run the other way;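 note: the enzyme is Sfp with the accession as filed and its product quenches rhodamine fluorescence; potency is the fitted concentration of half-maximal effect; 0% = enzyme reaction without inhibitor and -100% = no enzyme wells; top concentration of the series not given in the record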
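Reaction rates are the 30-min fluorescence difference (ex 525, em 598 nm) in wells containing 15 nM Sfp, 5 uM rhodamine-CoA and 12.5 uM BHQ-2-YbbR at pH 7.6 with 10 mM MgCl2.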
Menin-MLL FL inh – menin-MLL binding inhibition, fluorescein peptide; AID 1766; FP activity change, % at 61.4 µM; 290,000 tested, under 10 active; Fluorescence polarization, fluorescein-MLL peptide displacement from menin; inconclusive = falling polarisation curve, or a change in total fluorescence; inactive = total fluorescence flat and polarisation flat or rising; no compound was filed as active; the % refers to the polarisation; negative = inhibition;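 note: % of control where 0% means no effect; inhibitors lower the polarisation; unlabelled MLL peptide was the positive control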
TRPV1 PAM – human TRPV1 potentiation | TRPV1-expressing cells, Fluo-8 calcium influx, capsaicin EC20 potentiation; host cell line not named in the record; control for the full effect not named in the record | potentiation, % at 8.33 µM | 320,000 compounds, 0.02% hits; active means potentiation above 80%; inconclusive means 30% to 80%; inactive means below 30%; note: 0% is about no effect
Target sequence (Q8NER1 whole entry, looked up): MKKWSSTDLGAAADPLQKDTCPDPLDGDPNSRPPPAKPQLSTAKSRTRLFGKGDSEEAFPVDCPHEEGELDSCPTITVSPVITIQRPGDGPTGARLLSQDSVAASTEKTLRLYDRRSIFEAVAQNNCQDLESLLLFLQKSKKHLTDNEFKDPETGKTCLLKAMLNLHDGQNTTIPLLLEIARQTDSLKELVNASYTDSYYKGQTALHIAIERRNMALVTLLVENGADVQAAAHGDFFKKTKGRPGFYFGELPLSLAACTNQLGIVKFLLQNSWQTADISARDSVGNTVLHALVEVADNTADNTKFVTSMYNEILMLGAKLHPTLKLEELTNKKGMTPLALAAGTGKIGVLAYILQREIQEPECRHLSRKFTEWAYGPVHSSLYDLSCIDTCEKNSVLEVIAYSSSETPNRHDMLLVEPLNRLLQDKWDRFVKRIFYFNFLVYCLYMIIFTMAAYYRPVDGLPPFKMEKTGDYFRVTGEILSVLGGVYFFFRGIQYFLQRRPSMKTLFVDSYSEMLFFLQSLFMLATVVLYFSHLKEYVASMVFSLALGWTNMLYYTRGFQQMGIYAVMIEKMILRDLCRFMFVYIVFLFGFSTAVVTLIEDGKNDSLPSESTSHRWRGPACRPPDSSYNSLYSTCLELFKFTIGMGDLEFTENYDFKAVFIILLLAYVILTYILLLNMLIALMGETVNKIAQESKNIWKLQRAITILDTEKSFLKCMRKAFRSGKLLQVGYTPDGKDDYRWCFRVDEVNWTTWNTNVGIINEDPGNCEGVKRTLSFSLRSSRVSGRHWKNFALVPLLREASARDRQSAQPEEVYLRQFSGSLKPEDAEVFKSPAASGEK
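TRPV1-expressing cells were cultured overnight at 35.5C and loaded with Fluo-8 calcium dye for 40 to 90 min at room temperature. After a 10 s baseline, compound was added and calcium influx was read kinetically for 3 min (ex 480/em 520 nm).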
PINK1 expr mod – PINK1 expression modulation | PINK1 immunofluorescence, high-content cytometry, 24 h | Potency, µM (doses to about 76.6 µM), without a hit: at the highest dose activation (PINK1 increase), hits mostly activators | 410,000 compounds, 0.2% hits | AID 624263; active = well fitted activation curve with a large enough effect; inconclusive = small, poorly fitted or top-dose-only effect; inactive = flat fitted curve, though single readings scatter; cell line not stated here;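 note: potency is the fitted concentration of half-maximal effect; % of control where 0% means no effect; nearly all actives have a fitted effect of over 65% in size; a mitochondrial uncoupler was the plate control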
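Readout is PINK1 immunofluorescence, quantified alongside mitochondrial, cell and nuclear markers by laser-scanning microplate cytometry. Cells from a stable line were exposed to compound titrations (5 concentrations) for 24 hours, with CCCP controls.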
TRPML1 inh – blocks the human TRPML1 channel | AID 624415 | TRPML1-inducible cells, Ca2+ dye fluorescence, FDSS; active compounds read low; inhibition of EC80 agonist-evoked calcium signal | Q9GZU1 | 390,000 compounds, 0.02% hits | activity change, negative = inhibition, % (no concentration beside the values); in the data active means activity change below about -50%; inconclusive means about -30% to -50%; inactive means above about -30%;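 note: stimulus is agonist 54-4 at its EC80 concentration; % is set by controls: 0 for no effect and ±100 for the full control effect; compound concentration not given in the record; the text of the record puts the active cut at -80%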
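Tet-induced TRPML1-DL cells loaded with Ca8 no-wash calcium dye were read kinetically on FDSS. Compound addition was followed by EC80 agonist 54-4 (4 uM final); inhibition was read over 110 s.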
ClpP mod – qHTS Assay for Activators of ClpP; ATP-dependent Clp protease proteolytic subunit (Bacillus subtilis (strain 168)), P80244; 340,000 compounds, 1.9% hits; Potency, µM (titrated, usually from 57.5 µM), for the others: at the top dose activity change, negative = active; purified B. subtilis ClpP, FRET peptide cleavage, 20 min; active = well fitted falling curve with a large enough effect; inconclusive = small, poorly fitted or top-dose-only effect; inactive = no such curve, though single readings can be large or run the other way; note: potency is the fitted concentration of half-maximal effect; the source files actives as falling curves though it sought activators and does not explain the sign; nearly all actives have a fitted effect of over 65% in size; many hits overshoot -100%
Target sequence (P80244 whole entry, looked up): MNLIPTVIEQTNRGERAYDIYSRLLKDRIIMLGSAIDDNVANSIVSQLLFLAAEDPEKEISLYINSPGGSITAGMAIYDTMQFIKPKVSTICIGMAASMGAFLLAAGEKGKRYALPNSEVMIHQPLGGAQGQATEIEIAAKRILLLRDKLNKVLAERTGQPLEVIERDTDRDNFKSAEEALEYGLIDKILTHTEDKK
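FRET quenching reversal measured ClpP activation: 10 microg/mL B. subtilis ClpP at pH 8 with the FRET-FV decapeptide, read at 430 nm after 320 nm excitation. The 20-min minus 0-min signal was scaled between DMSO/no-enzyme wells and ADEP (5.8 microM final).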
TRPML1 ag – activates the human TRPML1 channel | TRPML1-expressing cells, Ca2+ dye fluorescence, FDSS; host cell line not named in the record; reference of the full effect not given here | activation, % (no concentration beside the values) | 410,000 compounds, 0.12% hits | AID 624414; in the data active = activation above about 50%; inconclusive = about 30% to 50%; inactive = below about 30%; note: 0% is about no effect; the text of the record puts the active cut at 80%
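In this qHTS format, compounds were pin-transferred onto Ca8-dye-loaded TRPML1-DL cells induced with Tet overnight, and intracellular Ca2+ fluorescence was recorded kinetically for 110 s after a 10 s baseline. A subsequent 4uM final 54-4 (EC80) addition followed by a second 110 s read served as the antagonist phase.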
The depositor's hits bear a star; ? = inconclusive; . = not tested or not shown; & = joins results of further samples; [ ] = another dose, or the depositor's remark.

Values in the order – Sfp inh	Menin-MLL FL inh	TRPV1 PAM	PINK1 expr mod	TRPML1 inh	ClpP mod	TRPML1 ag
1) CC(=O)c1ccc(OCC(=O)Nc2c(C)nn(-c3ccccc3)c2C)cc1
  .	.	15	1.6%	2	0.6%	-0.1
2) COc1ccc(C(=O)OCC(=O)c2ccc[nH]2)cc1
  .	.	1	1.7%	-12	-1.5%	2.7
3) CC(Oc1ccccc1F)C(=O)NNC(=O)c1cccc(S(=O)(=O)N2CCN(C)CC2)c1 (centres undefined)
  .	.	-6	0.6%	17	-1.3%	-0.3
4) COc1ccc(CCCC(=O)NCCc2ccccc2)cc1
  8%	-6.0	-19	-0.5%	12	-0.2%	0.3
5) O=C(OCCOc1ccccc1Cl)c1ccc(-n2cnnn2)cc1
  -4%	-2.2	?	7.3%	-10	0.5%	1.3
6) Cc1oc2ccccc2c1CC(=O)NCCCN(C)C
  8%	2.8	1	3.1%	-7	-1.3%	-0.4
7) COC(=O)C1=CN(CCCN2CCCC2=O)C=C(C(=O)OC)C1c1cccs1
  -13%	-1.1	-7	-3.1%	-3	28µM*	1.2
8) O=C(NCCC1=CCCCC1)C(=O)NCCc1ccc(Cl)cc1
  12%	2.4	-19	1.1%	4	-0.6%	-0.8
9) O=C(c1ccc(C#Cc2ccccc2)o1)N1CCN(c2ccccn2)CC1
  ?	0.2	-1	-1.3%[38.3 µM]	6	-8.0%	2.9
10) CN(C)CC/C=C1/c2ccccc2COc2ccccc21
  -5%&17%	3.9&0.5	5	.	.	.	.
11) CCOC(=O)c1cnc2c(ccc3ccccc32)c1Nc1ccc(OC)cc1OC
  .	.	.	6.3%	-3	-1.0%	2.0
12) C/C(=N\Nc1cccc(C(=O)O)c1)c1cc2ccccc2o1
  0%	-3.4	2	-0.6%	16	.	-0.7
13) Cc1ccc(C2(C)NC(=O)N(CC(=O)NC(=O)NCCC(C)C)C2=O)cc1 (centres undefined)
  -9%	0.0	?	-2.3%[38.3 µM]	-5	-1.6%	0.2
14) Cc1cc(C)cc(NC(=O)C2CCCN2C(=O)NC2CCCCC2)c1 (centres undefined)
  3%	-7.0	23	-1.6%	-21	1.5%	1.6
15) CC(CC(=O)Nc1ccccc1)NCCCN1CCCC1=O (centres undefined)
  -20%	-15	9	-0.8%	-5	.	-0.6
16) COc1cc(C(=O)NC2(C(F)(F)F)C(=O)NC(C)=C2C#N)cc(OC)c1OC (centres undefined)
  .	.	.	1.0%	-24	0.5%	-0.1
17) CC(C)NC(=O)N(C)C[C@H]1Oc2ccc(NC(=O)NC3CCCCC3)cc2C(=O)N([C@H](C)CO)C[C@@H]1C
  .	.	.	0.1%	-4	-4.3%	0.2
18) O=Cc1ccc(OCC(=O)NC(=O)NC2CCCCC2)cc1
  0%	1.6	-7	0.9%	-2	-2.9%	-0.8
19) COC(=O)COc1ccc2c(=O)c(-c3ccccc3)coc2c1
  -15%	5.0	-1	1.2%	6	.	-0.2
20) COc1ccc(NC(=O)CSc2nnc(C3CC3)n2N)cc1
  -2%	5.0	7	3.1%[38.3 µM]	-3	7.4%	2.9
21) NS(=O)(=O)c1cccc(NC(=O)CC23CC4CC(C2)CC(CC(=O)Nc2cccc(S(N)(=O)=O)c2)(C4)C3)c1
  7%	-1.5	13	0.3%	-9	-3.3%	0.4
22) Cc1onc(-c2c(Cl)cccc2Cl)c1C(=O)OCC(=O)c1ccccc1
  15%	3.1	-4	1.3%	11	0.6%	2.6
23) Cn1c(SCc2ccc([N+](=O)[O-])cc2)nnc1-c1ccncc1
  12%	-1.5	-4	-1.6%	-5	0.6%	1.2
24) COC(=O)c1sc(S(=O)(=O)N2CCN(CCO)CC2)c(C(=O)OC)c1C
  11%	1.8	-4	-3.1%	11	.	-0.5
25) CCOC(=O)CCC(=O)Nc1ccc([N+](=O)[O-])cc1C
  18%	-0.7	5	-1.8%	-23	.	0.0
26) O=C1CSC(=S)N1
  ?	-0.8	-1	0.6%	-9	2.9%	0.3
27) Cc1cc2[nH]c(=O)c(=O)[nH]c2cc1S(=O)(=O)N1CCN(c2ccccc2)CC1
  1%	-3.7	-14	1.1%&3.2%	-8&-8	-12%&-25%	0.6&2.8
28) Cc1ccnc(NC(=O)c2cccc(S(=O)(=O)N3CCCc4ccccc43)c2)c1
  .	.	-10	2.9%	4	0.4%	1.0
29) CCc1ccc(-n2nc3ccc(NC(=O)c4ccc(C#N)cc4F)cc3n2)cc1
  .	.	.	1.2%	0	2.8%	4.6
30) COC(=O)Nc1ccc(S(=O)(=O)N2CCN(c3ccc(F)cc3)CC2)cc1
  -6%	6.2	14	0.6%	-8	-1.2%	1.5
31) Cc1nnc(SCC(=O)NC(=O)NCc2ccco2)n1Cc1ccccc1
  -11%	0.2	4	0.3%	20	0.9%	-0.4
32) Cc1ncoc1C(=O)N1CCCC(C(=O)c2ccc(Oc3ccccc3)cc2)C1 (centres undefined)
  -23%	-0.9	-5	-0.3%	1	.	-0.3
33) Brc1ccc(C2Nc3cccc4cccc(c34)N2)s1
  -18%	2.9	-7	2.1%	14	-1.4%	0.0
34) CN1CCN(c2ncc3c(n2)CCN(Cc2cc(Br)cs2)C3)CC1
  .	.	.	-0.9%	1	-2.9%	1.2
35) COc1ccccc1C1CC(c2ccc(Br)cc2)=NN1C(=O)c1cccnc1 (centres undefined)
  11%	16	-5	12%	10	-5.3%	-0.6
36) O=C(CN1CCOCC1)Nc1nc2ccc([N+](=O)[O-])cc2s1
  -3%	4.7	0	-2.2%	-2	-7.1%	0.1
37) CCOC(=O)c1ccc(NC(=O)CN2c3ccccc3S(=O)(=O)c3ccccc32)cc1
  .	.	.	1.4%	-1	?	1.8
38) O=C(N/N=C/c1ccccc1C(=O)O)c1cccc(S(=O)(=O)N2CCOCC2)c1
  .	.	-23	2.9%	14	0.3%	0.1
39) C[C@H](CO)N1C[C@H](C)[C@@H](CN(C)C)Oc2c(NS(=O)(=O)c3ccc(F)cc3)cccc2C1=O
  .	.	.	2.7%	3	1.1%	0.1
40) Cc1ccc(C(=O)N=c2sccn2C)cc1C
  20%	.	1	1.9%	45	-2.6%	-0.6
41) c1cncc(-c2ccc3ncnc(NC4CCNCC4)c3c2)c1
  15%	-5.7	.	1.5%	.	.	.
42) Cc1ccc(C(=O)N2[C@@H]3CN(C)C(=O)[C@@]2(Cc2ccccc2)[C@H]2C(=O)N(Cc4ccccc4)C(=O)[C@@H]32)cc1
  .	.	.	-0.2%	-1	1.1%	-0.1
43) N#Cc1cccc(NC(=O)CCNC(=O)c2ccccc2Cl)c1
  12%	5.1	-20	1.7%	10	-2.7%	1.4
44) Cc1ccc2nc3n(c(=O)c2c1)CCC3
  12%	-1.0	7	.	44	-1.7%	1.1
45) COc1ccc(Cl)cc1Nc1nc(C)cc(=O)[nH]1
  6%	2.7	1	4.3%	13	-13%	1.2
46) COCCN(C(=O)COC(=O)/C=C/c1ccc(OC)c(OC)c1)c1c(N)n(Cc2ccccc2)c(=O)[nH]c1=O
  .	.	4	1.2%	6	?	-0.1
47) Cc1ccccc1C(=O)N1N=C(c2ccc(NS(C)(=O)=O)cc2)CC1c1cccs1 (centres undefined)
  0%	12	?	2.8%	3	.	1.2
48) COc1ccc(C(=O)CSc2nnc(CNc3nc(-c4ccccc4)cs3)n2C)cc1
  3%	4.1	20	-3.2%	30	-1.7%	3.0
49) Cn1c(CCc2nc3ccccc3[nH]2)n[nH]c1=S
  ?	3.6	16	0.9%	9	.	0.5
50) Cc1ccc(-n2cnc3cc(NCc4cccs4)ccc32)cc1
  ?	-2.3	22	-5.1%[38.3 µM]	-5	22µM*	-0.3
51) Cc1ccc(C2CCN(C(=S)NC3CCCCC3)C2)cc1 (centres undefined)
  3%	0.4	12	4.4%	-6	.	0.1
52) CCOc1ccc(C(C(=O)NCC2CCCO2)N(C(=O)c2snc(C(N)=O)c2N)c2ccccc2F)cc1 (centres undefined)
  -3%	.	3	2.5%	3	3.4%	3.6
53) Cc1cccc(N(Cc2cc3ccccc3[nH]c2=O)S(=O)(=O)c2ccccc2)c1
  -4%	-3.6	16	3.6%	-5	32µM*	0.1
54) O=C(NCC(c1cccs1)N1CCOCC1)c1ccccc1NS(=O)(=O)c1cccc([N+](=O)[O-])c1 (centres undefined)
  23%	5.1	3	1.3%	15	.	0.5
55) COCC1CCN(C(=O)c2cc(COc3ccc4c(c3)CCCC4)on2)C1 (centres undefined)
  -2%	.	-5	0.8%	-20	-3.5%	2.3
56) COCCNC(=O)C1(C)CCN(C(=O)c2cccnc2Oc2ccccc2)C1 (centres undefined)
  .	.	.	0.0%	43	-0.1%	0.1
57) Cc1ccc(NC(=O)CSc2nc(O)c(Cc3ccccc3)c(=O)n2-c2ccccc2)cc1
  26%	6.9	13	-0.3%	-21	.	-0.5
58) Cc1ccc(-c2nc3ccc(C)cn3c2Cc2ccccc2C(F)(F)F)cc1
  .	.	.	3.3%	49	4.4%	0.6
59) Cc1cccc(-n2ncc3c(NCCCO)ncnc32)c1
  2%	-2.7	-6	2.6%	-10	4.2%	-0.6
60) Cc1ccc(/C=C/C(=O)NCC2COc3ccccc3O2)o1 (centres undefined)
  6.3µM*	?	-14	2.8%	-2	.	1.3
61) Cc1ccc(N2C(=O)N3[C@H](c4cccc(C)c4)[C@@H]4C(=O)N(Cc5ccccc5)C(=O)[C@@H]4[C@]3(C)C2=O)cc1
  .	.	-7	1.2%	-26	-0.5%	0.6

Sorted by molecular weight (smallest number first): part of the list above.
Values in the order – Sfp inh	Menin-MLL FL inh	TRPV1 PAM	PINK1 expr mod	TRPML1 inh	ClpP mod	TRPML1 ag
60) Cc1ccc(/C=C/C(=O)NCC2COc3ccccc3O2)o1 (centres undefined)
  6.3µM*	?	-14	2.8%	-2	.	1.3
51) Cc1ccc(C2CCN(C(=S)NC3CCCCC3)C2)cc1 (centres undefined)
  3%	0.4	12	4.4%	-6	.	0.1
55) COCC1CCN(C(=O)c2cc(COc3ccc4c(c3)CCCC4)on2)C1 (centres undefined)
  -2%	.	-5	0.8%	-20	-3.5%	2.3
58) Cc1ccc(-c2nc3ccc(C)cn3c2Cc2ccccc2C(F)(F)F)cc1
  .	.	.	3.3%	49	4.4%	0.6
